Screening data deposited in PubChem by several laboratories.
ALR inh = blocks human ALR sulfhydryl oxidase activity; P55789; purified ALR, DTT oxidation, H2O2 HRP-luminol luminescence; inhibition, % (test concentration not listed); actives 3.8% (n = 290,000); AID 485317;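 active = mean and each replicate at 75% or more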;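 note: stock transfer was 7.5 nL into about 7.5 µL; 0% = neutral wells and 100% = wells with inactivated enzyme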
Target sequence (P55789 whole entry, looked up): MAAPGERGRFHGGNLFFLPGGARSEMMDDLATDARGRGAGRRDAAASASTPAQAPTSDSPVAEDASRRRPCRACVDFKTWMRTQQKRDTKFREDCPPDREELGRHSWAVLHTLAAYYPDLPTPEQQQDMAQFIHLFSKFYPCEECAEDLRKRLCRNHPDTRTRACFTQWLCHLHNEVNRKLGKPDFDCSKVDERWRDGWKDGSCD
FGF22 binding = shifts melting point of recombinant human FGF22; Q9HCT0; recombinant FGF22 thermal shift, SYPRO orange fluorescence; percent of sucrose octasulfate shift, DMSO zero; calls only at 9.99 µM; actives 1.5% (n = 340,000); AID 651658;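 active = melting point raised past a set limit in the mean and every replicate; three in four hits are not shown here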
E coli growth = inhibitors of Escherichia coli growth | OD600, 23 h; stronger effect = lower value | OD600 absorbance (concentration not given with the values) | actives 0.21% (n = 330,000);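 active = OD600 absorbance below the run mean of sample wells minus 3.6 SD, in any replicate, cut at about 0.56 in these data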;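 note: stock transfer was 300 nL into about 60 µL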
B2AR ag = activates human beta-2 adrenergic receptor causing internalization; P07550; Am2.2-beta2AR cells, FAP receptor internalization, flow cytometry; reference of the scale not given here; response, % (test concentration not listed); actives 0.43% (n = 340,000); AID 504454;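 active = response above a set limit, near 3 SD of response in nonfluorescent compounds, cut at about 42% in these data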;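 note: stock transfer was 100 nL into about 11 µL; a reference agonist was the positive control; negative values mostly stem from fluorescent compounds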
Target sequence (P07550 whole entry, looked up): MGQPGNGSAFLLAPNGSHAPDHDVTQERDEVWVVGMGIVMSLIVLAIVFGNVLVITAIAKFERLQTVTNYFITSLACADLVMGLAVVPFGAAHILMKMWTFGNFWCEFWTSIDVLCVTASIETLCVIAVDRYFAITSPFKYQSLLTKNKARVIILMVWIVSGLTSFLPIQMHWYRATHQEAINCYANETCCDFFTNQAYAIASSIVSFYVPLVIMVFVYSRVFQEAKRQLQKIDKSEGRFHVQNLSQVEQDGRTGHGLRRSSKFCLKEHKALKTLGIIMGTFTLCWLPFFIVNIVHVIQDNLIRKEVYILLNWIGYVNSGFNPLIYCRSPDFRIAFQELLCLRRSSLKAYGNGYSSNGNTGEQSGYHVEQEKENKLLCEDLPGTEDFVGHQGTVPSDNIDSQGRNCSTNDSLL
rRNA inh HTS = inhibitors of bacterial rRNA selective over humanized ribosomes; GFP signal change (wild-type ribosome), % (no concentration beside the values); E. coli WT GFP vs humanized-ribosome RFP mutants, fluorescence, 24 h; stronger effect = lower value; DMSO median 0, no signal -100; actives 1.6% (n = 350,000); AID 720706;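 active = significant combined selectivity score with lowered wild-type GFP, culture density cut under 30%, mutant RFP and density less affected; inactive = any of these conditions unmet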; note: one replicate is shown; some compounds called inactive have numbers as strong as hits
UCH37 DUB inh = inhibitors of human deubiquitinating enzyme UCH37 | actives 0.33% (n = 330,000) | Q9Y5K5 | inhibition, % (no concentration beside the values) | purified proteasome/UCH37, Ub-AMC cleavage fluorescence;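 active = mean of two replicates above 20%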;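 note: 0% = compound-free wells with enzyme and 100% = wells lacking proteasome; stock transfer was 100 nL into about 20 µL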
Target sequence (Q9Y5K5 whole entry, looked up): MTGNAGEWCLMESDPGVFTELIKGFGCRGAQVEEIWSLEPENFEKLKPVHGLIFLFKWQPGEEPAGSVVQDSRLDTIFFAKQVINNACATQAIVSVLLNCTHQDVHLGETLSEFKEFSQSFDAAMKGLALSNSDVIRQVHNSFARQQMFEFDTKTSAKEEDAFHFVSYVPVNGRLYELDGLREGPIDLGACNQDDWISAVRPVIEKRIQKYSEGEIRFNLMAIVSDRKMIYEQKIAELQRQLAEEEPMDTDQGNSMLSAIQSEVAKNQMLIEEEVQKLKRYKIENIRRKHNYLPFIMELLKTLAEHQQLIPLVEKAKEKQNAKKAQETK
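Material: Human UCH37 enzyme supplied as purified proteasome complex | Schedule: 30 min compound-proteasome preincubation then 25 min substrate reaction, room temperature | Detection: AMC fluorescence from Ub-AMC cleavage, excitation 355 nm, emission 460 nm | Benchmarks: Wells without proteasome as full block, compound-free enzyme plus substrate as uninhibited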
HNF4A DNA FP = change in binding of human HNF4 alpha to DNA; P41235; HNF4a-FITC DNA binding, fluorescence polarization, 1 h; activity change, % at 10 µM; actives 0.3% (n = 360,000); in the data active = activity change above about 30%, passing the limit was not always enough;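 note: controls were the assay level and a saturating level of protein; the project sought stronger binding though the title names inhibitors; some compounds called inactive have numbers as strong as hits; positive values seem to mean higher polarization but the record does not say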
rRNA inh HTS OD600 = further read-out of rRNA inh HTS, marked with its call; OD600 change, %; measured here: OD600 growth;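 optical density of the mix in the first replicate; 0 = DMSO median and -100 = no signal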
rRNA inh HTS RFP = second read-out of rRNA inh HTS, no call of its own (marks repeat the call); RFP signal change, %; measured here: RFP humanized mutant strains;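 first replicate; 0 = DMSO median and -100 = no signal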
The depositor's hits bear a star; i = inactive; · = not tested or not shown; & = joins results of further samples. Some of the compounds tested; rates above refer to the full screens.

Sample of the layout (2 entries):
SMILES | ALR inh | FGF22 binding | E coli growth | B2AR ag | rRNA inh HTS | rRNA inh HTS OD600 | rRNA inh HTS RFP | UCH37 DUB inh | HNF4A DNA FP
OCCN(Cc1ccccc1)Cc1cccc(Cl)c1Cl | -2.7 | · | 0.63 | 0.6 | · | · | · | 0.5 | 3.1
CC(C)N(c1ccccc1)c1ccc(NC(=O)[C@@H]2O[C@H](CO)[C@@H](O)[C@H]2O)cc1 | · | i | · | · | 8.1 | 12.4 | 1.6 | · | 1.9

The listing (from the top)
SMILES | ALR inh | FGF22 binding | E coli growth | B2AR ag | rRNA inh HTS | rRNA inh HTS OD600 | rRNA inh HTS RFP | UCH37 DUB inh | HNF4A DNA FP
OCCN(Cc1ccccc1)Cc1cccc(Cl)c1Cl | -2.7 | · | 0.63 | 0.6 | · | · | · | 0.5 | 3.1
CC(C)N(c1ccccc1)c1ccc(NC(=O)[C@@H]2O[C@H](CO)[C@@H](O)[C@H]2O)cc1 | · | i | · | · | 8.1 | 12.4 | 1.6 | · | 1.9
C=CCn1c(Sc2ccccc2)nc2c1c(=O)[nH]c(=O)n2C | -5.4 | · | 0.732 | 1.7 | · | · | · | 1.6 | -4.5
COc1ccccc1-n1c2nc3ccccc3nc2c2c(=O)n(-c3cc(C)cc(C)c3)cnc21 | -9.0 | · | 0.725 | 2.3 | · | · | · | -0.6 | 6.3
CSc1ccccc1C(=O)NCCSc1ccc(C)cc1 | -0.9 | i | 0.679 | 15.0 | -2.6 | -5.0 | -2.1 | 2.3 | -4.2
CCc1ccc(N(C(=O)CNC(=O)c2cccs2)C(C(=O)NC(C)(C)C)c2cc(OC)c(OC)c(OC)c2)cc1 (stereo not drawn) | -11.9 | i | 0.712 | -6.4 | 13.7 | 8.3 | -2.4 | 0.1 | 1.5
O=C(NCCCNC(=O)NC1CCCCC1)NC1CCCCC1 | 0.2 | · | 0.697 | · | · | · | · | 4.7 | ·
COCCNC(=O)C1(C)CCN(C(=O)c2nc(C)oc2C)C1 (stereo not drawn) | · | i | · | · | 6.2 | 18.5 | 0.9 | · | 3.5
CCCCOc1ccc(S(=O)(=O)N2CCCCCC2)cc1 | -8.7 | · | 0.71 | -11.0 | · | · | · | 0.4 | -0.1
O=C(Cn1cccc1C(=O)c1ccccc1)NCc1ccc(F)cc1 | -1.8 | i | 0.731 | 2.1 | 0.6 | 5.7 | -3.9 | 2.5 | -0.4
CSc1cccc(NC(=S)N(CCCN2CCCC2)Cc2cccn2Cc2ccc(Cl)cc2)c1 | -8.2 | i | 0.654 | 32.9 | -54.5 | -78.7 | -30.9 | 4.3 | 1.0
CC(C)CC(N)c1csc(NC(=O)Nc2ccccc2C(C)C)n1 (stereo not drawn) | · | i | · | · | -64.8 | -80.9 | -18.5 | · | 7.7
Cc1c(N2C(=O)/C(=C/c3ccccc3)SC2=S)c(=O)n(-c2ccccc2)n1C | 6.4 | · | 0.733 | -4.3 | · | · | · | 9.1 | 2.6
Cc1ccccc1S(=O)(=O)NC(=O)C1(C)CCN1C(=O)Cc1ccccc1Cl (stereo not drawn) | · | i | · | · | 1.9 | 7.5 | -0.2 | · | 4.4
Nc1nn(S(=O)(=O)c2ccccc2)cc1-c1ccc([N+](=O)[O-])cc1 | · | i | 0.67 | -21.3 | 16.7 | 12.1 | -0.5 | 3.5 | 1.6
O=S1(=O)CC(N2CCC(c3ccccc3)CC2)CN1Cc1ccccc1 (stereo not drawn) | · | i | · | · | -3.4 | -19.0 | -3.3 | · | -2.5
CSc1nnc(NC(=O)CCc2ccccc2)s1 | -18.5 | · | 0.701 | -3.9 | · | · | · | -0.3 | 0.3
CCOC(=O)C1=CCC(c2ccccc2)N(S(=O)(=O)c2ccccc2[N+](=O)[O-])C1 (stereo not drawn) | · | i | · | · | -5.8 | -6.4 | -2.3 | · | 0.3
CCN(CC)P(=O)(Nc1cccc(C(F)(F)F)c1)c1ccc(N(C)C)cc1NC(=O)c1ccco1 (stereo not drawn) | -9.2 | i | 0.729 | 5.6 | 19.2 | 15.8 | 0.0 | -3.0 | 4.3
CN1CCN(C(=O)CCN2C(=O)/C(=C/c3ccc(F)cc3)SC2=S)CC1 | · | i | 0.686 | -7.2 | 2.8 | 16.4 | 19.2 | 8.9 | 6.9
Cc1nn(C)c(C(=O)N2CCN(C(=O)c3ccco3)CC2)c1Br | 0.9 | i | 0.64 | 0.8 | 0.0 | 4.4 | 0.1 | 0.5 | 2.6
C(=NNc1ccc2ccccc2n1)c1ccccn1 | · | i | · | · | -41.5 | -63.6 | -11.4 | · | -1.1
CN(CC(=O)NCc1ccccc1)Cc1ccc(Cl)cc1 | -36.4 | i | 0.645 | 6.7 | -19.0 | -20.0 | -4.7 | 1.3 | 1.7
COc1ccc(C)cc1S(=O)(=O)N(C)CC(=O)N1CCN(c2ccccc2)CC1 | 36.0 | i | 0.637 | -5.9 | -4.5 | -8.1 | 5.9 | 0.6 | 3.5
COc1ccc(N2C(=O)NC(NC(=O)c3ccncc3)(C(F)(F)F)C2=O)cc1 (stereo not drawn) | -5.6 | · | 0.655 | 9.6 | · | · | · | -0.2 | 5.6
O=C(Nc1ccc(Oc2ccc(C(F)(F)F)cn2)c(Cl)c1)C1CC1 | -1.6 | i | 0.658 | -0.6 | -3.8 | -4.9 | -2.2 | -0.8 | 4.0
Nc1ccccc1C(=O)NCCCN1CCN(c2cccc(Cl)c2)CC1 | 44.5 | i | 0.6 | 2.2 | -7.3 | -7.5 | -1.2 | -63.9 | -0.1
CCOC(=O)N1CCN(c2nc3ccc(C)cc3n3cnnc23)CC1 | · | i | 0.666 | -16.2 | 13.6 | 12.5 | 0.3 | -7.3 | 1.4
COc1ccc(CCNC(=O)C(=O)NCC2OCCCN2S(=O)(=O)c2cc(C)ccc2C)cc1 (stereo not drawn) | -2.0 | i | 0.714 | 0.0 | 16.1 | 14.2 | 3.5 | -2.2 | 1.4
O=C(NNS(=O)(=O)c1cccc(Cl)c1Cl)c1cccc(S(=O)(=O)N2CCOCC2)c1 | 14.3 | i | 0.667 | 4.6 | -11.9 | -5.7 | 2.3 | 6.1 | 3.6
O=C(CNC(=O)c1cccs1)NCC(=O)OCc1ccccc1Cl | -0.7 | i | 0.703 | 13.3 | 0.3 | 6.4 | -5.2 | 0.5 | -1.2
CCn1c2ccccc2c2nnc(SCC(=O)NC(CC(C)C)C(=O)OC)nc21 (stereo not drawn) | -18.1 | · | 0.722 | 9.0 | · | · | · | 6.0 | 0.2
CN(C1CCCCC1)S(=O)(=O)CCNC(=O)c1ccccc1 | 0.7 | i | 0.636 | -12.6 | 6.4 | 13.4 | 1.8 | -0.5 | -0.3
O=C(Cc1nc2ccccc2[nH]c1=O)c1ccccc1 | · | i | 0.719 | -270.8 | -9.1 | 28.5 | 5.4 | 2.2 | 38.3*
CCOC(=O)c1[nH]c2ccccc2c1NC(=O)C(C)(C)C | · | i | 0.725 | 0.3 | -0.5 | 5.8 | 4.3 | -26.0 | 1.5
Cc1ccsc1C(C(=O)NC(C)(C)C)N(C(=O)c1csnn1)c1ccccc1 (stereo not drawn) | · | i | 0.687 | -5.4 | 6.1 | 2.1 | -0.7 | 1.5 | 21.7

Some of the entries so far, comma-delimited.
Structure,ALR inh,FGF22 binding,E coli growth,B2AR ag,rRNA inh HTS,rRNA inh HTS OD600,rRNA inh HTS RFP,UCH37 DUB inh,HNF4A DNA FP
CN(C1CCCCC1)S(=O)(=O)CCNC(=O)c1ccccc1,0.7,i,0.636,-12.6,6.4,13.4,1.8,-0.5,-0.3
O=C(Cc1nc2ccccc2[nH]c1=O)c1ccccc1,·,i,0.719,-270.8,-9.1,28.5,5.4,2.2,38.3*
CCOC(=O)c1[nH]c2ccccc2c1NC(=O)C(C)(C)C,·,i,0.725,0.3,-0.5,5.8,4.3,-26.0,1.5
Cc1ccsc1C(C(=O)NC(C)(C)C)N(C(=O)c1csnn1)c1ccccc1 (stereo not drawn),·,i,0.687,-5.4,6.1,2.1,-0.7,1.5,21.7

(cont.)
SMILES | ALR inh | FGF22 binding | E coli growth | B2AR ag | rRNA inh HTS | rRNA inh HTS OD600 | rRNA inh HTS RFP | UCH37 DUB inh | HNF4A DNA FP
CSc1ccc(S(=O)(=O)NC2CCCCCC2)cc1 | -4.0 | · | 0.693 | -5.0 | · | · | · | 5.8 | 1.4
COC(=O)CSc1nnc(-c2ccco2)n1-c1ccc(C)cc1 | -0.8 | · | 0.672 | 13.6 | · | · | · | 1.1 | -0.6
CCS(=O)(=O)N1CCN(c2nc(-c3ccccc3)cs2)CC1 | 2.8 | · | 0.727 | 0.0 | · | · | · | 3.1 | -0.7
O=C(CNS(=O)(=O)c1ccccc1)OCC(=O)c1ccc([N+](=O)[O-])cc1 | 45.5 | · | 0.663 | 5.8 | · | · | · | 5.7 | 3.5
Nc1nnnn1/N=C/c1ccco1 | -15.7 | · | · | -3.9 | · | · | · | · | 0.1
CC(C)C[C@@H](CN1CCC[C@@H]1CN1C(=S)NC[C@@H]1Cc1ccc(O)cc1)N1C[C@H](Cc2ccc(O)cc2)N(CC2CCCCCC2)C1=S | · | i | · | · | 3.5 | 7.6 | -1.8 | · | 1.8
O=C(C[C@@H]1CC[C@@H]2[C@H](COC[C@@H](O)CN2Cc2cc(F)ccc2F)O1)NCc1ccc(F)cc1 | · | i | · | · | -2.6&-16.0 | -6.7&-13.4 | -4.0&4.8 | · | -3.9
Cc1ccc(C)c(S(=O)(=O)NNC(=O)c2sc(NS(=O)(=O)c3ccccc3)nc2C)c1 | 13.6 | i | 0.698 | 29.2 | 1.9 | 1.8 | -0.6 | 3.1 | 6.0
Cc1ccc(-n2nnnc2SCC(=O)NNC(=O)c2ccc([N+](=O)[O-])cc2)cc1 | -2.5 | i | 0.71 | -9.7 | 9.0 | 7.8 | 0.0 | 2.6 | -1.0
CCCCc1nn(-c2cc(Cl)ccc2OC)c2c1C(=O)CCC2 | -3.2 | i | 0.735 | -12.3 | -24.7 | -37.4 | -6.9 | 4.8 | -0.6
Cc1cc(Br)ccc1NC(=O)C1CCCO1 (stereo not drawn) | -3.7 | · | 0.624 | 4.3 | · | · | · | -0.7 | 1.7
O=C(NC1CCCN(Cc2ccccc2F)C1)C1CCC1 (stereo not drawn) | · | i | 0.618 | -2.8 | 4.0 | 11.0 | -1.4 | 3.6 | 0.6
Cc1nc(Nc2ccc(Cl)c(Cl)c2)sc1C(=O)Nc1ccccc1 | -8.9 | i | 0.652 | 11.3 | -23.7 | -61.8 | 20.0 | -8.6 | -2.1
Cc1ccc(-c2cc(C(=O)Nc3ccc(S(=O)(=O)Nc4ncccn4)cc3)[nH]n2)c(O)c1C | 0.8 | i | 0.653 | 24.6 | 5.0 | 8.5 | -1.5 | 3.9 | -5.4
Cc1ccc(C)c(SCC(=O)Nc2ccc(S(=O)(=O)Nc3ncccn3)cc2)c1 | · | i | 0.681 | 14.1 | 2.8 | 12.7 | 12.4 | 3.6 | 4.6
CC(=O)Nc1cccc(C(=O)/C=C/c2ccc(Br)cc2)c1 | 10.4 | i | 0.651 | 66.8* | -18.3 | -17.2 | -7.0 | -4.8 | -2.2
CNC(=S)N1N=C(c2ccc(C)cc2)CC1c1ccc(OC)cc1 (stereo not drawn) | 0.7 | · | 0.762 | -16.8 | · | · | · | 0.2 | -0.8
Cc1cc(NC(=O)C2CC(c3ccccc3Cl)=NO2)no1 (stereo not drawn) | 4.4 | · | 0.709 | -3.4 | · | · | · | 4.3 | -3.1
CCOC(=O)c1sc(N2C(=O)C(O)=C(C(=O)c3ccc(C)o3)C2c2ccc(OC)c(OC)c2)nc1C (stereo not drawn) | · | i | 0.739 | 16.4 | 0.8 | 0.3 | 2.3 | 1.1 | 10.8
